# Mtb betalactam – beta-lactam sensitization of Mtb H37Rv | M. tuberculosis H37Rv growth with meropenem, percent inhibition; hits of this screen are not shown here | inhibition, % at 25 µM | 330,000 tested, 0.27% active;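 active = about 74% or more and at least 40 points above the plate without the antibiotic, then above 30% in a dose series; inconclusive = first-round hits that could not be retested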;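 also: growth measured after seven days incubation then overnight dye step; 0% = bacteria only wells and 100% = bacteria with antibiotic; twin plates without the antibiotic show which effects depend on it; some results filed as inactive read as strong as hits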
# An asterisk follows results filed as active; ? = inconclusive.
SMILES,Mtb betalactam
CC[C@]12c3[nH]c4ccccc4c3CCN1C(=O)C(CC(=O)NC/C=C(\C)CCC=C(C)C)C[C@@H]2C(=O)N1CCN(C(=O)C2CC2)CC1 (stereo partly drawn),12
COc1ccc(NC(=O)COc2ccc(N(C)S(=O)(=O)c3ccc(Cl)cc3)cc2)cc1,6
CC1CCC2(CC1)NC(=O)N(CC(=O)N1CCN(S(=O)(=O)c3ccc4c(c3)CCC4)CC1)C2=O (stereo not drawn),2
Cc1ccc(C(=O)OCC(=O)NC(=O)NCc2ccccc2)cc1C,-3
O=C(CCNS(=O)(=O)c1cccc(C(F)(F)F)c1)NC1CC1,7
CN(C)c1ccc(C(=O)OCc2cc(=O)n3ccsc3n2)cc1,-8
COc1cccc(-c2cc(C(=O)N/N=C/c3ccco3)c3ccccc3n2)c1,?
Cc1noc(C)c1CSCC(=O)N(C)CC(=O)Nc1ccccc1C(F)(F)F,6
Cc1cc(C)c(S(=O)(=O)NCCSCc2ccco2)c(C)c1,-2
O=C(COC(=O)c1cc(Cl)ccc1O)Nc1cc(C(F)(F)F)ccc1N1CCOCC1,-3
CCOC(=O)c1nncc(-c2ccccc2)n1,3
COc1ccccc1N(C)S(=O)(=O)c1ccc(C(=O)Nc2ccc(C(N)=O)cc2)cc1,-6
Cc1cccc(NC(=O)CN2C(=O)N/C(=C\c3ccccc3OCc3ccc(C(=O)O)cc3)C2=O)c1,-1
CNC[C@H]1Oc2ccc(NC(=O)Nc3ccc(OC)cc3)cc2C(=O)N([C@@H](C)CO)C[C@H]1C,8
O=C(Nc1cccc(Cl)c1N1CCOCC1)c1ccco1,-1
O=c1ccc2cc3ccoc3c(O)c2o1,-6
Cc1c(C(=O)NCC2CCCO2)oc2ccccc12 (stereo not drawn),-12
CC(=O)N1c2ccccc2[C@@H](C)[C@@H]1C,0
COc1ccc([C@H]2CC(=O)C=C(c3cc(Cl)cc(Cl)c3)C2)cc1,11
C[C@H](CO)N1C[C@H](C)[C@@H](CN(C)C(=O)Nc2ccc3c(c2)OCO3)Oc2ccc(NC(=O)Nc3ccc(C(F)(F)F)cc3)cc2C1=O,5
O=C(Nc1cccnc1)c1cccc(S(=O)(=O)Nc2cccc(Cl)c2)c1,-2
Cc1ccccc1C(=O)OC1CCCN(C)C1 (stereo not drawn),-3
CCOC(=O)c1c(NC(=O)COC(=O)c2ccc(NC(=O)CC#N)cc2)sc(C(=O)NC)c1C,5
CN(C(=O)CSc1nnnn1-c1ccc(Cl)cc1)C1CCS(=O)(=O)C1 (stereo not drawn),3
C/C(=N\NC(=O)COc1cc(C)cc(C)c1)c1cccc(NC(=O)C2CCC2)c1,1
# Next part.
SMILES,Mtb betalactam
COc1ccc(S(=O)(=O)N(C)C[C@H]2Oc3ccc(NC(=O)NC(C)C)cc3C(=O)N([C@H](C)CO)C[C@@H]2C)cc1,-1
O=C(NCCc1ccc(C(F)(F)F)cc1)C1CC(=O)N(c2ccc3c(c2)OCCO3)C1 (stereo not drawn),0
O=C(CCCN1CCC(O)(c2cccc(C(F)(F)F)c2)CC1)c1ccc(F)cc1,2
Cc1ccc(NC(=O)CSc2nc(C)c(C)c(C)n2)cc1S(=O)(=O)N1CCOCC1,4
O=C(COC(=O)c1ccccc1O)Nc1cccc(S(=O)(=O)N2CCCC2)c1,-7
CCN(C(=O)CSc1ccccn1)C1CCCCC1,2
COc1cccc(CNC(=O)c2ccc(NC(=O)CC3SC(N4CCCC4)=NC3=O)cc2)c1 (stereo not drawn),-1
C=CC[C@@H](CC(=O)N[C@@H](CO)Cc1ccccc1)C(=O)N[C@@H](COC(=O)[C@H](CC=C)CC(=O)OC(C)(C)C)Cc1c[nH]c2ccccc12,-11
CCOC(=O)C(C)N(c1ccccc1Cl)S(C)(=O)=O (stereo not drawn),-1
COc1ccc(NC(=O)CN2C(=O)NC3(CCCc4ccccc43)C2=O)c(OC)c1 (stereo not drawn),-5
CC(C)NC(=O)c1ccc(NC(=O)CC2SC(N3CCCCC3)=NC2=O)cc1 (stereo not drawn),1
COc1ccc(CNC(=O)COC(=O)c2cccc(S(=O)(=O)N3CCOCC3)c2)cc1,-2
Cc1c(NS(=O)(=O)c2ccc(F)cc2)c(=O)n(-c2ccccc2)n1C,0
CCN(C[C@H]1N[C@@](C)(C(=O)OC)[C@H]2C(=O)N(C)C(=O)[C@@H]12)C(=O)COC,0
COc1ccc(C(=O)/C=C/c2ccc(O)cc2)c2c1CC(O)C(C)(C)O2 (stereo not drawn),1
Cc1ccc(CNC(=O)c2ccc(C)c(S(=O)(=O)N3CCCCC3)c2)cc1,-5
COc1ccc(N(C)S(=O)(=O)c2cccc(C(=O)Nc3nc(C)cs3)c2)cc1,-2
Cc1ccccc1NC(=O)COC(=O)C1=COCCO1,72
CCc1ccccc1N1CC(C(=O)Nc2cc(S(=O)(=O)N3CCCC3)ccc2Cl)CC1=O (stereo not drawn),-6
CN(CC(=O)Nc1ccccc1C(F)(F)F)C(=O)CSc1nc(N)cc(N)n1,-1
NC(=O)C1CCCN(C(=O)c2cccc(S(=O)(=O)N3CCCCCC3)c2)C1 (stereo not drawn),9
O=C(COC(=O)c1n[nH]c(=O)c2ccccc12)NCc1ccccc1,0
O=C(NNC(=O)C1CCN(C(=O)Nc2ccccc2)CC1)c1ccc(F)cc1,6
CCOC(=O)C1CCCN(C(=O)c2cc(-c3ccco3)nc3ccccc23)C1 (stereo not drawn),2
C[C@@H]1O[C@@H](OC[C@H]2O[C@@H](Oc3cc(O)c4c(=O)cc(-c5ccc(O)c(O)c5)oc4c3)[C@H](O)[C@@H](O)[C@@H]2O)[C@H](O)[C@H](O)[C@H]1O,8

# The closing two compounds of the section before come first, to join the parts.
SMILES,Mtb betalactam
CCOC(=O)C1CCCN(C(=O)c2cc(-c3ccco3)nc3ccccc23)C1 (stereo not drawn),2
C[C@@H]1O[C@@H](OC[C@H]2O[C@@H](Oc3cc(O)c4c(=O)cc(-c5ccc(O)c(O)c5)oc4c3)[C@H](O)[C@@H](O)[C@@H]2O)[C@H](O)[C@H](O)[C@H]1O,8
CC(C)(C)OC(=O)N1CCN(C(=O)c2[nH]cnc2C(=O)Nc2nccs2)CC1,5
COc1ccc(CCNC(=O)CN2C(=O)C(=O)N(C3CCCC3)C2=O)cc1OC,-1
Cn1c(=O)c2c(ncn2CC(=O)Nc2cc(S(=O)(=O)N3CCCCC3)ccc2O)n(C)c1=O,-7
O=C(NS(=O)(=O)NC1CCCCC1)C1=C(N2CCCC2)COC1=O,-3
O=C(CCCOc1ccccc1)NNC(=O)c1ccncc1,97
O=C(COc1ccccc1Cc1ccccc1)Nc1cccc(S(=O)(=O)N2CCOCC2)c1,-1
Cc1ccsc1C(=O)OCC(=O)NCc1ccccc1,-3
COc1ccc([C@H]2CC(=O)C=C(c3c(C)cc(C)cc3C)C2)cc1,77
COc1ccc(NC(=O)CN(C)C2CCS(=O)(=O)C2)cc1 (stereo not drawn),0
COc1ccc(S(=O)(=O)N2CCN(CC(=O)N3CCc4ccccc4C3)CC2)cc1OC,4
CC[C@@]1(C(=O)OC)N[C@H](CN(C)C(=O)COC)[C@@H]2C(=O)N(Cc3ccccc3)C(=O)[C@@H]21,-1
CCC(C)N(C(=O)CSc1nnnn1-c1ccccc1OC)C1CCS(=O)(=O)C1 (stereo not drawn),-10
O=C(OCCCc1cc2ccccc2c(=O)o1)c1ccccc1C(F)(F)F,-3
C#CCOCCOCCOCCNc1nc(N2CCN(C(=O)CCCCCCCCCCNC(=O)Cn3cc(CCCCCN)nn3)CC2)nc(N2CCN(C(=O)CCCCCCCCCCNC(=O)[C@@H]([C@H](C)O)n3cc(C)nn3)CC2)n1,89
COc1ccc(SC[C@H](Cc2ccccc2)N2CC[C@@H](O)CCC2=O)cc1,-3
Cc1nc(SCC(=O)N2CCN(c3ccccn3)CC2)c(C#N)c(C)c1C,-8
Cc1ccc(S(=O)(=O)NCC(=O)OCC(=O)N2CC(=O)Nc3ccccc32)cc1,-1
O=C(NCCOc1ccccc1)c1cc([N+](=O)[O-])ccc1N1CCOCC1,-3
O=S(=O)(Nc1ccccc1N1CCOCC1)c1ccccc1C(F)(F)F,2
NCCCCCc1cn([C@@H](CO)C(=O)NCCCCCCCCCCC(=O)N2CCNCC2)nn1,-10
CCN(CC(=O)NCC1CCCO1)S(=O)(=O)c1ccc2ccccc2c1 (stereo not drawn),-1
CCCN(CC(=O)Nc1ccccc1C)C(=O)CCCOc1ccc(Br)cc1,5
CCCCN1CC(=O)N2[C@H]3c4cc(C)ccc4OC[C@@H]3[C@H](C(=O)OCC)[C@]2(C)C1=O,-2
CC(=O)OCCC(C)C,-5
Cc1ccc(S(=O)(=O)N2CCC[C@H]2C(=O)Nc2ccccc2C)cc1,-1
# Further records follow.
SMILES,Mtb betalactam
CC1(C)CC(=O)C=C(c2cccc(O)c2)C1=O,-4
O=C(COC(=O)c1ccc(S(=O)(=O)NCc2ccco2)cc1)NCc1ccc(F)cc1,5
COCCc1nnc(NC(=O)C23CC4CC(CC(C4)C2)C3)s1,1
COc1ccc(C)cc1NC(=O)COC(=O)CCC(=O)c1cccs1,2
O=C(CCC1CCCN(C(=O)c2ccc(F)c(F)c2)C1)N1CCN(c2ccccn2)CC1 (stereo not drawn),0
O=C(Cc1ccccc1F)NNC(=O)c1ccncc1,-8
O=c1[nH]c(O)c(N=Nc2ccc(Cl)c(S(=O)(=O)Nc3ccccc3Cl)c2)c(=O)[nH]1,-1
C[C@H](NS(=O)(=O)c1ccccc1)C(=O)N1CCN(C(c2ccccc2)c2ccccc2)CC1,-7
Cc1cc(NC(=O)Nc2cccc(Cl)c2)n(C(C)(C)C)n1,9
COc1ccc(NC(=O)N(C)C[C@@H]2Oc3ccc(NC(=O)NC(C)C)cc3CC(=O)N([C@H](C)CO)C[C@@H]2C)cc1,10
CC1CCC2(CC1)NC(=O)N(NC(=O)c1cccs1)C2=O (stereo not drawn),-4
Cc1ccc(NC(=O)Nc2ccc3c(c2)nnn3C)cc1C,3
Cc1ccc(NC(=O)C2CC(=O)N(CCc3ccccc3)C2)cc1Cl (stereo not drawn),6
CC12CCC(=O)N1C(C(=O)Nc1nc3ccccc3s1)CS2 (stereo not drawn),2
Cc1cc(C)c(NC(=O)CSc2nc3ccccc3c(=O)n2CCCN2CCOCC2)c(C)c1,-2
CNS(=O)(=O)c1cccc(C(=O)OCC(=O)Nc2ccc3ccccc3c2)c1,-17
CCOC(=O)c1[nH]c(C)c(C(=O)OCC(=O)NCc2ccc(Cl)cc2)c1C,-7
CCOc1ccc(NC(=O)CN2CCN(c3ccccc3C)CC2)cc1S(=O)(=O)N1CCCC1,-5
Cc1nc(SCCc2nc3ccccc3[nH]2)c2oc3ccccc3c2n1,-7
CC1CCC2(CC1)NC(=O)N(CC(=O)N(Cc1ccccc1)C(C)(C)C)C2=O (stereo not drawn),-9
Cc1ccc(C)c(Sc2ccc(NC(=O)CCN3C(=O)NC4(CCCC4)C3=O)cc2)c1,11
COc1ccc(NC(=O)N(C)C[C@H]2Oc3c(NC(=O)C4CCCCC4)cccc3C(=O)N([C@H](C)CO)C[C@@H]2C)cc1,2
NS(=O)(=O)c1cccc(NC(=O)c2ccc(NS(=O)(=O)c3cccc([N+](=O)[O-])c3)cc2)c1,-5
CC(=O)c1ccc(OC(C)C(=O)OCC(=O)NCCc2ccccc2)cc1 (stereo not drawn),-9
CCN(CC)S(=O)(=O)c1ccc2[nH]c(=O)cc(C(=O)N(C)C3CCS(=O)(=O)C3)c2c1 (stereo not drawn),2
# Carrying on.
SMILES,Mtb betalactam
C#CCOCCOCCOCCNc1nc(N2CCN(C(=O)[C@H](CCCN=C(N)N)n3cc(C(N)[C@@H](C)CC)nn3)CC2)nc(N2CCN(C(=O)[C@H](CCC(=O)O)n3cc([C@@H](N)[C@H](C)CC)nn3)CC2)n1 (stereo partly drawn),3
COc1cc(NCc2ccccc2)c2ncn(C(C)C)c2c1,9
CC1CC(OC(=O)c2ccccc2C(=O)c2ccc(Cl)cc2)C(=O)O1 (stereo not drawn),-3
COc1ccc(Cl)cc1-c1nc(SCC(=O)N(C)C2CCS(=O)(=O)C2)n[nH]1 (stereo not drawn),4
CC(C)Oc1ccc(S(=O)(=O)N2CCOCC2)cc1NC(=O)C1CCCCC1,-8
C[C@@H]1CN([C@@H](C)CO)C(=O)c2cc(NC(=O)Nc3ccc(F)cc3)ccc2O[C@@H]1CN(C)Cc1ccc(Oc2ccccc2)cc1,73
CC(=O)c1ccc(N(CC(=O)NCc2ccc3c(c2)OCO3)C(=O)c2csnn2)cc1,-8
O=C(COC(=O)CNC(=O)c1ccccc1)NCc1ccc2c(c1)OCO2,3

# Entries from the list above with a Cl atom:
SMILES,Mtb betalactam
COc1ccc(NC(=O)COc2ccc(N(C)S(=O)(=O)c3ccc(Cl)cc3)cc2)cc1,6
O=C(COC(=O)c1cc(Cl)ccc1O)Nc1cc(C(F)(F)F)ccc1N1CCOCC1,-3
O=C(Nc1cccc(Cl)c1N1CCOCC1)c1ccco1,-1
COc1ccc([C@H]2CC(=O)C=C(c3cc(Cl)cc(Cl)c3)C2)cc1,11
O=C(Nc1cccnc1)c1cccc(S(=O)(=O)Nc2cccc(Cl)c2)c1,-2
CN(C(=O)CSc1nnnn1-c1ccc(Cl)cc1)C1CCS(=O)(=O)C1 (stereo not drawn),3
CCOC(=O)C(C)N(c1ccccc1Cl)S(C)(=O)=O (stereo not drawn),-1
CCc1ccccc1N1CC(C(=O)Nc2cc(S(=O)(=O)N3CCCC3)ccc2Cl)CC1=O (stereo not drawn),-6
O=c1[nH]c(O)c(N=Nc2ccc(Cl)c(S(=O)(=O)Nc3ccccc3Cl)c2)c(=O)[nH]1,-1
Cc1cc(NC(=O)Nc2cccc(Cl)c2)n(C(C)(C)C)n1,9
Cc1ccc(NC(=O)C2CC(=O)N(CCc3ccccc3)C2)cc1Cl (stereo not drawn),6
CCOC(=O)c1[nH]c(C)c(C(=O)OCC(=O)NCc2ccc(Cl)cc2)c1C,-7
CC1CC(OC(=O)c2ccccc2C(=O)c2ccc(Cl)cc2)C(=O)O1 (stereo not drawn),-3
COc1ccc(Cl)cc1-c1nc(SCC(=O)N(C)C2CCS(=O)(=O)C2)n[nH]1 (stereo not drawn),4

# Screening data as filed in PubChem BioAssay.

# These rows are one share of the data; the hit share may differ from the screen's.
